UUG fidelity: modulators of start codon recognition fidelity in yeast; activity score, % at 18.7 µM; actives 0.13% (n = 350,000); S. cerevisiae UUG-firefly luciferase reporter, luminescence/redox ratio;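 active = replicate mean at a twofold rise or more, about +100% in these data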;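 note: firefly luciferase made from a UUG start codon reports start codon fidelity; reporter light over untreated wells divided by growth signal over untreated wells; some hits fall short of that in this replicate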
HIV Env fusion: HIV envelope-mediated fusion inhibition; HeLa-JRFL Env/CEM21 cell fusion, luciferase; inhibition, % at 12.3 µM; actives 1.1% (n = 360,000);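 active = mean replicate inhibition score of at least 50 and every replicate individually at or above 50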;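 note: 0% = plate neutral controls and 100% = maraviroc near 300 nM; one replicate is shown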
Rce1 inhib: yeast Ras-converting enzyme inhibition | yeast membranes, quenched prenylated peptide cleavage fluorescence | calls only | actives 0.27% (n = 290,000);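 active = fall in fluorescence gain of 50% or more versus controls, with final raw signal at or below 3038400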;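 note: plate controls were neutral control wells for no effect and wells lacking membranes for full effect; tested at 10 µM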
PABP polyA inh: PABP-poly(A) binding inhibition; P11940; PABP-poly(A) RNA binding, fluorescence polarization; inhibition, % at 35 µM; actives 1% (n = 290,000); AID 2014;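 active = 50% or more with normal probe brightness, or confirmed in later tests; about a fifth of its hits are not listed in these tables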;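 note: calls also rest on retests at 20 µM and on dose response follow-up; controls were probe without protein and protein plus probe with vehicle; some compounds called inactive have numbers as strong as hits; many hits fall short of the cut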
Target sequence (P11940 whole entry, looked up): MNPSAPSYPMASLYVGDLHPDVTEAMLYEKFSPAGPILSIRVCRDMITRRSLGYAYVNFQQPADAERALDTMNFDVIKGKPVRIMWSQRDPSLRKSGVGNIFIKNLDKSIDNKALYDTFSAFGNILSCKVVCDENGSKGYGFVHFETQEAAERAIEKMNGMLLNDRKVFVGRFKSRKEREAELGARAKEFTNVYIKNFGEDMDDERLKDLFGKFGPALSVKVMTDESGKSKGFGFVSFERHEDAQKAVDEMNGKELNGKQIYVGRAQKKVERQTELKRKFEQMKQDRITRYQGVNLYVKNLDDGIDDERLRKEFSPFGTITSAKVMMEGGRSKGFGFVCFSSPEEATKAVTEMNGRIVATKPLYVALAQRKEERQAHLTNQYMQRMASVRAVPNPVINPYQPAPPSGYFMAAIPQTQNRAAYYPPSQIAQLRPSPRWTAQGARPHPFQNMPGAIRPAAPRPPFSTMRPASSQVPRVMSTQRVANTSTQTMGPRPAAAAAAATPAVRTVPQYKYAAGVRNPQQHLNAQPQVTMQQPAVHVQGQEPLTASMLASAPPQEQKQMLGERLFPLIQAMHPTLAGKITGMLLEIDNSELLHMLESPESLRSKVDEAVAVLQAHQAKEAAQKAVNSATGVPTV
eIF4H FP inh: inhibitors of RNA binding by human eIF4H; Q15056; inhibition, % at 35 µM; AID 2012; eIF4H fluorescence polarization binding assay; actives 0.94% (n = 290,000);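 active = 50% or more with normal probe brightness, or confirmed in later tests; about a fifth of its hits are not listed in these tables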;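 note: calls also rest on retests at 20 µM and on dose response follow-up; 0% = protein and probe with vehicle and 100% = probe without protein; strong numbers were not always called active; many hits fall short of the cut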
MT1-MMP act inh: MT1-MMP (human) activation inhibition; HT1080 RFP-PRO-GFP cells, GFP/RFP ratio fluorescence, overnight; percent of plate control window, DMSO zero; GFP/RFP ratio change, % at 20 µM; actives 0.061% (n = 360,000); AID 651647;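 active = GFP/RFP ratio change of at least 30% with cell ATP level not reduced by more than half and red fluorescence within 50% of control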; note: strong numbers were not always called active
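Assay system – RFP-PRO-GFP reporter HT1080 cells · Compound dosing – single dose of 20 µM compound, 1% DMSO final · Incubation – overnight compound exposure at 37 °C · Measure – GFP/RFP fluorescence ratio · Benchmarks – DMSO wells and RFP-L50D-GFP cells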
CSC inhib: cancer stem cell inhibition; inhibition, % at 7.5 µM; cancer stem cell-like cells viability, luminescence; actives 1.1% (n = 300,000);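 active = mean at 75% or more and at least half the replicates too; tested in HMLE shEcad cells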;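 note: 0% = median of negative and 100% = median of positive control wells; the first replicate is given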
MT1-MMP act inh RFP: second read-out of MT1-MMP act inh, no call of its own (marks repeat the call); RFP signal change, %; measured here: RFP expression control read;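 0 = vehicle wells; hits needed this value within 50% of zero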
The depositor's hits bear a star; i = inactive; . = not tested or not shown; & = joins results of further samples.

Codes: A = UUG fidelity; B = HIV Env fusion; C = Rce1 inhib; D = PABP polyA inh; E = eIF4H FP inh; F = MT1-MMP act inh; G = MT1-MMP act inh RFP; H = CSC inhib
Cc1ccc(OC(=O)C(F)(F)F)c2c1NCCC2
  A: -6 | B: -60 | C: i | D: 9 | E: -1 | F: 0 | G: 5 | H: 7

CC1CCCCN1C(=O)Cn1cc(C=O)c2ccccc21 (stereo unspecified)
  A: . | B: -15 | C: i | D: -4 | E: -4 | F: -1 | G: 3 | H: 5

COCc1cc(=O)n2c(-c3ccc(C)cc3)n[nH]c2n1
  A: -30 | B: -49 | C: i | D: -12 | E: 18 | F: 6 | G: 9 | H: 9

CCn1c(N2CCC(Cc3ccccc3)CC2)nc2c1c(=O)[nH]c(=O)n2C
  A: 0 | B: . | C: i | D: -1 | E: -1 | F: 0 | G: -9 | H: -1

Cc1ccc2c(c1)nnn2C1CCN(S(=O)(=O)c2ccc(C(=O)N(C)C)cc2)CC1
  A: -7 | B: -20 | C: i | D: 0 | E: -4 | F: 1 | G: -3 | H: -15

COc1ccc(OC)c(NC(=O)Nc2ccc3c(c2)OCO3)c1
  A: 4 | B: -24 | C: i | D: 0 | E: -3 | F: -1 | G: 0 | H: -1

Cc1ccc(C)c(NC(=O)CN(C)C(=O)c2ccc(-n3cncn3)c([N+](=O)[O-])c2)c1
  A: . | B: 8 | C: i | D: . | E: . | F: -2 | G: 0 | H: -6

CN(C)C(CNc1ccc(C(F)(F)F)cc1[N+](=O)[O-])c1ccccc1 (stereo unspecified)
  A: -6 | B: 3 | C: i | D: 9 | E: 2 | F: -5 | G: 0 | H: .

CCOC(=O)N1CCN(S(=O)(=O)c2ccc(C(=O)N(CCCN(C)C)c3nc4ccc(CC)cc4s3)cc2)CC1
  A: -1 | B: 12 | C: i | D: -4 | E: -9 | F: -5 | G: 1 | H: -6

Cc1ccc([C@@H]2[C@@H]3C(=O)N(C)C(=O)[C@@H]3[C@]3(Cc4ccccc4)C(=O)N(CCO)CC(=O)N23)o1
  A: -16 | B: -11 | C: i | D: -5 | E: -5 | F: 1 | G: 3 | H: -5

COc1ccc(S(=O)(=O)Nc2ccc3c(c2)C(=O)N([C@@H](C)CO)C[C@H](C)[C@H](CN(C)CC2CC2)O3)cc1
  A: 9&6 | B: 6 | C: . | D: . | E: . | F: 1 | G: 1 | H: .

CCOc1ccccc1NC(=O)CSc1nnc(Cc2ccc(OC)cc2)c(=O)n1N
  A: -6 | B: 0 | C: i | D: . | E: . | F: 0 | G: 2 | H: 2

CC(=O)Nc1ccc(-c2ccnc(-c3ccc(NC(C)=O)cc3)n2)cc1
  A: . | B: 5 | C: i | D: -8 | E: -4 | F: 1 | G: -2 | H: .

NS(=O)(=O)c1ccc(NC(=S)Nc2ccc(F)c(F)c2)cc1
  A: . | B: -13 | C: i | D: -5 | E: 22 | F: 4 | G: 7 | H: 0

O=C(O)C1CCCN1C(=O)Nc1ccc(F)cc1 (stereo unspecified)
  A: -9 | B: -28 | C: i | D: 15 | E: 0 | F: 1 | G: 9 | H: -3

CN(CC(O)COCc1cccs1)C1CCCCC1 (stereo unspecified)
  A: 11 | B: . | C: i | D: -3 | E: 1 | F: 2 | G: 10 | H: -1

CCCCCCCCCCC[C@@H](C[C@@H]1OC(=O)[C@H]1CCCCCC)OC(=O)[C@H](CC(C)C)NC=O
  A: -14 | B: 8 | C: i | D: 0 | E: 10 | F: -9 | G: -12 | H: 102*

O=c1[nH]c(=S)[nH]c2nccnc12
  A: -11 | B: 30 | C: . | D: . | E: . | F: 4 | G: 3 | H: .

Cc1nnc(SCC2CCCO2)n1-c1ccccc1 (stereo unspecified)
  A: -9 | B: . | C: i | D: 0 | E: -4 | F: 5 | G: 3 | H: .

CC(C)(C)c1cc(-c2ccccc2)no1
  A: . | B: 9 | C: i | D: 5 | E: 8 | F: 0 | G: 2 | H: 11

COc1cc(Cl)c(C)cc1NC(=O)CSCC#N
  A: -1 | B: -3 | C: i | D: -6 | E: -4 | F: -1 | G: 0 | H: -4

COc1ccccc1NC(=O)COC(=O)CCC(=O)c1cccs1
  A: 0 | B: 8 | C: . | D: . | E: . | F: 3 | G: 3 | H: .

C=CCNC(=O)c1c(Br)cnn1-c1ccc(C)cc1
  A: . | B: -1 | C: . | D: 0 | E: 1 | F: -1 | G: 2 | H: -3

Cc1ccc(OCc2cc(C(=O)NCCc3cccnc3)no2)cc1C
  A: -3 | B: 1 | C: i | D: 9 | E: -4 | F: 1 | G: -5 | H: .

Cc1cc(NC(=O)c2ccc(Cl)cc2)n(-c2ccccc2)n1
  A: -18 | B: -5 | C: i | D: 7 | E: -16 | F: -5 | G: -5 | H: .

COc1ccc(CC(=O)OCC(=O)N(C)C2CCS(=O)(=O)C2)cc1OC (stereo unspecified)
  A: 4 | B: . | C: i | D: . | E: . | F: 2 | G: 1 | H: -9

Cn1c(SCC(=O)Nc2ccc(C(N)=O)cc2)nc2c(c1=O)SCC2
  A: 6 | B: -22 | C: i | D: 10 | E: 4 | F: 7 | G: 7 | H: 1

NC(Cc1ccccc1)c1csc(Nc2ccc(C(=O)NCCO)cc2)n1 (stereo unspecified)
  A: -14 | B: -8 | C: . | D: . | E: . | F: 1 | G: 2 | H: .

Cc1ccc(NC(=O)N2CCN(Cc3ccc4c(c3)OCO4)CC2)cc1
  A: -18 | B: 15 | C: i | D: 0 | E: 0 | F: 4 | G: 2 | H: -1

COc1ccc(CCNC(=O)C2CCCN2C(=O)Nc2cccc(OC)c2)cc1 (stereo unspecified)
  A: -3 | B: 0 | C: i | D: 5 | E: 0 | F: -3 | G: -1 | H: -26

COC(=O)c1cc(S(=O)(=O)N2CCCC2)c(Cl)cc1Cl
  A: -10 | B: 11 | C: i | D: -2 | E: -7 | F: -2 | G: -1 | H: -4

COc1ccc(-c2nc3cnccn3c2NCc2ccccc2)cc1SC1CCCCC1
  A: 10 | B: . | C: i | D: . | E: . | F: -4 | G: -5 | H: 43

CN(C)c1ccc(-c2nn3c(-c4ccccc4Cl)nnc3s2)cc1
  A: -18 | B: 7 | C: i | D: 3 | E: -11 | F: 2 | G: -12 | H: 59

CCOC(=O)C1=CN(CC)S(=O)(=O)NC1c1ccccc1 (stereo unspecified)
  A: 11 | B: 1 | C: . | D: . | E: . | F: -1 | G: 5 | H: .

CC(C)C(=O)N1CCN(c2ccc([N+](=O)[O-])c(NC(C)c3ccccc3)c2)CC1 (stereo unspecified)
  A: -7 | B: . | C: i | D: -8 | E: -6 | F: -1 | G: -15 | H: .

CCc1nccn1CCC(=O)NC1CCCc2c1cnn2-c1ccc(F)cc1F (stereo unspecified)
  A: -17 | B: -67 | C: i | D: 7 | E: 3 | F: 2 | G: -9 | H: -3

COc1ccc2cc(C(=O)C3CCCN(C(=O)c4ccnn4C)C3)ccc2c1 (stereo unspecified)
  A: -15 | B: 5 | C: i | D: -8 | E: -4 | F: -33 | G: -3 | H: -16

CCOC(=O)c1c(Nc2nc(C)c(C(=O)NC)s2)sc(C)c1C
  A: . | B: . | C: i | D: -8 | E: -5 | F: -5 | G: -4 | H: -5

CCCc1cc(C(=O)Nc2ccc(C(=O)c3ccc(C)cc3)cc2)n(C)n1
  A: -11 | B: -4 | C: i | D: 2 | E: -11 | F: 2 | G: -15 | H: -10

O=C(CN1C(=O)C2CC=CCC2C1=O)Nc1ccc(S(=O)(=O)Nc2nccs2)cc1 (stereo unspecified)
  A: . | B: 16 | C: i | D: 0 | E: -5 | F: 3 | G: 5 | H: -10

COc1ccc(S(=O)(=O)NC2(C(F)(F)F)NC(=O)N(CCc3ccccc3)C2=O)cc1 (stereo unspecified)
  A: 7 | B: -21 | C: i | D: 15 | E: 4 | F: -2 | G: -1 | H: .

Cc1cccc(N2CCN(C(=O)c3cc(=O)[nH]c4ccccc34)CC2)c1C
  A: . | B: 13 | C: i | D: -8 | E: -5 | F: 2 | G: 0 | H: -17

CCOC(=O)Cn1c(CN(C)Cc2ccccc2)nc2c1c(=O)n(C)c(=O)n2C
  A: 4 | B: -6 | C: i | D: . | E: . | F: -7 | G: -4 | H: -4

O=C(Nc1ccccc1)c1ccc(=O)n(Cc2ccc(F)c(F)c2)c1
  A: 1 | B: -15 | C: i | D: -3 | E: 1 | F: -1 | G: -6 | H: -6

O=C(CCc1ccc(S(=O)(=O)NCCc2ccccc2)cc1)NCc1ccco1
  A: 0 | B: . | C: i | D: 2 | E: -4 | F: 5 | G: 1 | H: 0

COC(=O)[C@H](CC(C)C)NC(=O)NC1CCCc2ccccc21 (stereo partly specified)
  A: 17 | B: . | C: i | D: 13 | E: 2 | F: 0 | G: 1 | H: 4

N#Cc1c(N)c(C(=O)c2ccccc2)n2c1CCC2
  A: 0 | B: -25 | C: i | D: -1 | E: -8 | F: 4 | G: 5 | H: 0

CCc1cc(=O)[nH]c(SC/C=C/c2ccccc2)n1
  A: -5 | B: . | C: i | D: 14 | E: -8 | F: 6 | G: 3 | H: 1

CCN(CC)C(=O)c1cn(CCC#N)nc1-c1ccc(F)cc1
  A: -9 | B: 1 | C: i | D: 3 | E: -1 | F: -1 | G: -3 | H: -12

CN(C)S(=O)(=O)c1cccc(N=c2scc(-c3ccc4c(c3)NC(=O)CO4)n2CC2CCCO2)c1 (stereo unspecified)
  A: 5 | B: . | C: i | D: 4 | E: 10 | F: -3 | G: -17 | H: 5

(next part)
Codes: A = UUG fidelity; B = HIV Env fusion; C = Rce1 inhib; D = PABP polyA inh; E = eIF4H FP inh; F = MT1-MMP act inh; G = MT1-MMP act inh RFP; H = CSC inhib
O=C(CNC(=O)OCc1ccccc1)NC1CCCCNC1=O (stereo unspecified)
  A: -11 | B: 2 | C: i | D: -3 | E: -12 | F: -3 | G: 1 | H: -1

CC1=C(C(=O)N(C(C)C)C(C)C)CC(CC(=O)NCC2CCCCC2)C(=O)N1Cc1ccccc1 (stereo unspecified)
  A: 6 | B: 61* | C: . | D: . | E: . | F: 0 | G: -3 | H: .

Cn1c(CCN2CCOCC2)nc2cc(NC(=O)COc3ccccc3)ccc21
  A: -13 | B: -6 | C: i | D: -3 | E: -4 | F: 2 | G: -1 | H: -16

CCOc1ccc2nc(SC3CC(=O)N(c4ccc(OC)cc4OC)C3=O)sc2c1 (stereo unspecified)
  A: . | B: -70 | C: i | D: -2 | E: -8 | F: 6 | G: 3 | H: -2

Cc1cc(C)n2nc(C(=O)OCC(=O)c3c[nH]c4ccccc34)nc2n1
  A: . | B: 12 | C: i | D: -5 | E: -12 | F: -2 | G: 1 | H: -8

Brc1cnc(N2CCCC2)nc1N1CCCCC1
  A: -21 | B: -13 | C: i | D: -6 | E: -4 | F: 0 | G: 0 | H: -9

O=C(NCc1ccc(F)cc1)c1cc(C2CCCN(C(=O)c3ccc4ccccc4c3)C2)on1 (stereo unspecified)
  A: 3 | B: 25 | C: . | D: . | E: . | F: -4 | G: -17 | H: .

CCN(CC)C(=O)c1cccc(C)c1
  A: -32 | B: 23 | C: i | D: . | E: . | F: -2 | G: 1 | H: -11

COc1ccc(CN(CC(=O)NC2CCCC2)C(=O)c2csnn2)cc1
  A: -1 | B: -1 | C: i | D: -7 | E: 0 | F: 1 | G: 3 | H: 5

CC(CN1CCN(C/C=C/c2ccccc2)CC1)c1ccccc1 (stereo unspecified)
  A: -4 | B: -7 | C: i | D: -2 | E: -12 | F: -1 | G: 5 | H: 24
